Assay outcomes: PubChem, National Center for Advancing Translational Sciences (NCATS)
GCN5L2 inh – qHTS Assay for Inhibitors of GCN5L2. GCN5L2 HAT assay, ThioGlo1 CoA-SH fluorescence. Potency, µM (top dose mostly 58.9 µM), without a hit: at the top dose activity change, negative = inhibition, hits mostly inhibitors. 390,000 compounds, 0.21% hits. Histone acetyltransferase KAT2A (Homo sapiens), Q92830
Target sequence (Q92830 whole entry, looked up): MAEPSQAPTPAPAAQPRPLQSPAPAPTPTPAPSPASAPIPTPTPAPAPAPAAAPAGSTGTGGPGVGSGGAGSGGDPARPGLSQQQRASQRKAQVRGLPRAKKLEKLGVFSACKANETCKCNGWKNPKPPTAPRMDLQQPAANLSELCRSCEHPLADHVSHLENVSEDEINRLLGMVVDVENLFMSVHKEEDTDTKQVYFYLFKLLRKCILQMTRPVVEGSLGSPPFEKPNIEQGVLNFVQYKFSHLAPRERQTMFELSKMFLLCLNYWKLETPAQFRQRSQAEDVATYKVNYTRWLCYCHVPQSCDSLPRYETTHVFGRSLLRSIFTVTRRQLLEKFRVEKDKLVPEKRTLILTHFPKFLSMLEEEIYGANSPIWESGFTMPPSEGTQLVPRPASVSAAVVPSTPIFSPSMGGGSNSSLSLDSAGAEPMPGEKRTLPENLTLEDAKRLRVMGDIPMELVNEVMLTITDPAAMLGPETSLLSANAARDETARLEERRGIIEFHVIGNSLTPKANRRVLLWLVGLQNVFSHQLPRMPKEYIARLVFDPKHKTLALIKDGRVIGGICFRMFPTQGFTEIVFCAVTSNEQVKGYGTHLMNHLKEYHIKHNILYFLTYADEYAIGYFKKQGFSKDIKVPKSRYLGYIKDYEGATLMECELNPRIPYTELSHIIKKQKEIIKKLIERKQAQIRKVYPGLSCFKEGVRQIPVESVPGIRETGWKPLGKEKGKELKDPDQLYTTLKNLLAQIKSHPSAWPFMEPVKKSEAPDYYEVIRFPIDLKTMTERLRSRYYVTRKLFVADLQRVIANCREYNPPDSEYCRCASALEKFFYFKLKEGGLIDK
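GCN5L2 (20 nM) in 50mM HEPES pH 7.5, 0.1mM EDTA, 0.01% Tween-20 preincubated 15 min with compounds at room temperature. Reaction started with H3(1-25) 75uM, acetyl-CoA 70uM, ThioGlo1 50uM; CoA-thiol fluorescence (Ex340/Em540) read at 0 and 20 min.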
FEN1 inh – qHTS Assay for the Inhibitors of Human Flap endonuclease 1 (FEN1); 390,000 compounds, 0.35% hits; P39748; Recombinant FEN1 flap cleavage, fluorescence, 15 min; Potency, µM (series often up to 114 µM), without a hit: at the highest dose activity change, negative = inhibition, hits mostly inhibitors; further: nearly all actives have a fitted effect of over 65% in size
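Reaction started by adding substrate (50 nM final) to 10 nM enzyme after 15 min room-temperature compound preincubation. Reads at 0 and 15 min, with data normalized and fitted to a four-parameter Hill equation.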
Starred values were filed as active, the others as inactive; & = joins results of further samples; [ ] = dose if it differs, or a comment. The call rests on the fitted dose curve; in most records, active means well fitted curve in the direction sought with a large enough effect; inconclusive means small, poorly fitted or top-dose-only effect, or another doubt; inactive means no such curve, though single readings can be large; an effect the other way counts as inactive or inconclusive. On the % scale 0 is the no-effect control and ±100 the full control effect; potency means the concentration at half of the fitted maximal effect.

Screening Cc1ccc(S(=O)(=O)N2CCOCC2)cc1C(=O)NCCCn1ccnc1 returned GCN5L2 inh -3% and FEN1 inh -2%.
Screening COCCNS(=O)(=O)c1ccc2c(c1)oc(=O)c1cc(S(=O)(=O)NCCOC)ccc12 returned GCN5L2 inh 1%.
`COc1ccccc1CN1CCC(n2nccc2NC(=O)CCCc2ccccc2)CC1` gave GCN5L2 inh -3% and FEN1 inh 15%.
For Cc1c(OCc2ccc(C(=O)O)o2)ccc2c3c(c(=O)oc12)CCC3 the results were GCN5L2 inh -7% and FEN1 inh -12%.
`O=C(Cc1ccc(Cl)c(Cl)c1)Nc1cccnc1` gave GCN5L2 inh 3% and FEN1 inh -7%.
For O=C(COC(=O)/C=C/c1cccc(F)c1)Nc1ccccc1 the results were GCN5L2 inh -7% and FEN1 inh 31%.
For CCN(CC)P(=O)(Nc1ccc(Br)cc1)c1c(C)nn(CCC#N)c1NC(=O)c1ccc(Cl)cc1 (stereo not drawn) the results were GCN5L2 inh -3% and FEN1 inh -17%.
Cc1cc(=O)oc2cc(O)c(N=Nc3ccccc3)cc12 was read as GCN5L2 inh 0% and FEN1 inh 40%[activator].
For COc1ccc(-n2ccc(=O)c(C(=O)O)n2)cc1 the results were GCN5L2 inh -4% and FEN1 inh -10%.
COC(=O)c1ccc(NC(=O)C2C3CCC(C3)C2C(=O)O)cc1 (stereo not drawn) was read as FEN1 inh -2%.
`CCC(C(=O)NC1CCCC1)N(C(=O)Cn1nnc(-c2cccs2)n1)c1cnc2ccccc2c1` (stereo not drawn) gave GCN5L2 inh -27% and FEN1 inh 0%.
O=C(c1ccc(S(=O)(=O)N2CCOCC2)cc1)N(c1ccccc1)C1C=CS(=O)(=O)C1 (stereo not drawn) was read as GCN5L2 inh 2% and FEN1 inh -1%.
CCN(CC)C(=O)C(C)N(C#N)c1nc(Cl)nc(N(C)C)n1 (stereo not drawn) was read as GCN5L2 inh 2% and FEN1 inh -5%.
`CCOC(=O)NCC(C)(C)CNC(=O)OCC` gave GCN5L2 inh 3% and FEN1 inh -4%.
Screening CN1/C(=C/C=N/n2cnnc2)C(C)(C)c2ccccc21 returned GCN5L2 inh -17% and FEN1 inh -3%.
`CCC(C(=O)Nc1ccc(C(=O)Nc2ccccc2C(=O)O)cc1)c1ccccc1` (stereo not drawn) gave GCN5L2 inh -19% and FEN1 inh -16%.
Screening COc1ccc(-c2cc(N)n(S(=O)(=O)c3ccc(F)cc3)n2)cc1OC returned GCN5L2 inh -14% and FEN1 inh 8%.
O=C(N1CCOCC1)C12CC3CC(C1)CC(C(=O)N1CCOCC1)(C3)C2 was read as GCN5L2 inh -18% and FEN1 inh -4%.
Cc1nn(CCC(=O)NNC(=S)Nc2ccc(F)cc2)c(C)c1Br was read as GCN5L2 inh 0% and FEN1 inh -7%.
`CS(=O)(=O)Nc1cccc(-c2nc(NCCN3CCOCC3)c3ccccc3n2)c1` gave GCN5L2 inh -4%.

Pulled by compound from the entries so far, 5 records:
`CS(=O)(=O)Nc1cccc(-c2nc(NCCN3CCOCC3)c3ccccc3n2)c1` gave GCN5L2 inh -4%.
O=C(N1CCOCC1)C12CC3CC(C1)CC(C(=O)N1CCOCC1)(C3)C2 was read as GCN5L2 inh -18% and FEN1 inh -4%.
For O=C(COC(=O)/C=C/c1cccc(F)c1)Nc1ccccc1 the results were GCN5L2 inh -7% and FEN1 inh 31%.
For Cc1c(OCc2ccc(C(=O)O)o2)ccc2c3c(c(=O)oc12)CCC3 the results were GCN5L2 inh -7% and FEN1 inh -12%.
Screening CN1/C(=C/C=N/n2cnnc2)C(C)(C)c2ccccc21 returned GCN5L2 inh -17% and FEN1 inh -3%.

Continuation:
`CCOCCCNC(=S)N1CCN(c2nc(-c3ccccc3)cs2)CC1` gave GCN5L2 inh -1% and FEN1 inh -18%.
For CN(C)CCn1c2c(c(SCC(=O)N3CCc4ccccc43)nc1=O)CCCC2 the results were GCN5L2 inh -2% and FEN1 inh 5%.
For Cc1nnc(NC(=O)CSc2nc3[nH]ncc3c(=O)[nH]2)s1 the results were GCN5L2 inh 1% and FEN1 inh -14%.
`CC(=O)c1c(C)[nH]c(C(=O)NCC2CCCCC2)c1C` gave GCN5L2 inh 1% and FEN1 inh 8%.
`NNC(=O)COc1ccc(C(F)(F)F)cc1` gave GCN5L2 inh -8% and FEN1 inh 17%.
O=C(Nc1ccc(F)cc1)N1CCN(c2ccc(F)cc2)CC1 was read as GCN5L2 inh -14% and FEN1 inh -12%.
`O=[N+]([O-])c1cccc(-c2nnc(-c3ccccc3)o2)c1` gave GCN5L2 inh -8% and FEN1 inh -6%.
For COc1ccc(NC(=S)NCCNC(C)=O)cc1 the results were GCN5L2 inh -1% and FEN1 inh -2%.
Screening COc1ccc(N(C)S(=O)(=O)c2cccc(C(=O)N3CCN(S(=O)(=O)c4ccc(C)cc4)CC3)c2)cc1 returned GCN5L2 inh -8% and FEN1 inh -1%.
`CCN(Cc1cc2cc(C)ccc2[nH]c1=O)C(=O)c1cccc([N+](=O)[O-])c1` gave GCN5L2 inh 0% and FEN1 inh 4%.
Screening O=[N+]([O-])c1ccc(Oc2ccc(/C=N/O)cc2)nc1 returned GCN5L2 inh -4% and FEN1 inh -4%.
`O=C(N/N=C/c1ccc[nH]1)c1ccncc1` gave GCN5L2 inh -7% and FEN1 inh -6%.
O=C(O)Cc1ccc(NC(=O)Cc2ccc3ccccc3c2)cc1 was read as GCN5L2 inh 8% and FEN1 inh 22%.
For CN(c1ccccc1C(=O)O)S(=O)(=O)c1ccc2[nH]c(=O)[nH]c2c1 the results were GCN5L2 inh 0% and FEN1 inh 2%.
For CCOC(=O)N1CCN(C(=O)Nc2ccc3nc(C)c(C)nc3c2)CC1 the results were GCN5L2 inh -25% and FEN1 inh 8%.
For Cc1c(C(=O)Nc2nc3ccccc3[nH]2)cccc1[N+](=O)[O-] the results were GCN5L2 inh 4% and FEN1 inh 2%.
Screening CCOC(=O)N1CCN(C(=O)CN(c2cccc(C(F)(F)F)c2)S(C)(=O)=O)CC1 returned GCN5L2 inh -6% and FEN1 inh -1%.
For NNC(=O)c1oc2nc(-c3cccs3)cc(-c3ccco3)c2c1N the results were GCN5L2 inh -14%.
`CC1(c2ccccc2Cl)NC(=O)N(CC(=O)NCc2ccc3c(c2)OCO3)C1=O` (stereo not drawn) gave GCN5L2 inh -6% and FEN1 inh 5%.
For Cc1cccc(OCC(O)CN2CCN(CCN3C(=O)c4cccc5cccc(c45)C3=O)CC2)c1C (stereo not drawn) the results were GCN5L2 inh -7% and FEN1 inh inconclusive.
O=C(/C=C/c1ccc([N+](=O)[O-])cc1)OCC(=O)N1c2ccccc2Sc2ccccc21 was read as GCN5L2 inh -3% and FEN1 inh 2%.
For Clc1ccc(-c2nc(/C=N/N3CCOCC3)c3ccccn23)cc1 the results were GCN5L2 inh 1% and FEN1 inh -2%.
For Cc1cc(N2C(=O)C(=O)/C(=C(/O)c3ccc(Cl)cc3)C2c2cccc(Br)c2)no1 (stereo not drawn) the results were GCN5L2 inh -4% and FEN1 inh -12%.
Cn1c(=O)c2c(nc(CN3CCC(C(N)=O)CC3)n2Cc2ccccc2Cl)n(C)c1=O was read as GCN5L2 inh 0% and FEN1 inh 4%.
CC1CN(S(=O)(=O)c2cccc(C(=O)Nc3ccccc3N3CCCCC3)c2)CC(C)O1 (stereo not drawn) was read as GCN5L2 inh -4% and FEN1 inh -12%.
`O=C(Nc1ccccc1F)Nc1ccc([N+](=O)[O-])cc1Cl` gave GCN5L2 inh -8% and FEN1 inh 6%.
`Cc1ccc(NC(=O)NNC(=O)c2cccs2)cc1` gave GCN5L2 inh 3% and FEN1 inh 1%.
Screening Cc1cccc(NC(=O)NCCc2c[nH]c3ccccc23)c1 returned GCN5L2 inh -2% and FEN1 inh -10%.
For CC(C)CNS(=O)(=O)c1ccc(CCC(=O)NCc2ccncc2)cc1 the results were GCN5L2 inh -2% and FEN1 inh -10%.
`COC(=O)c1cc(OC)ccc1-c1ccc(OC)cc1` gave GCN5L2 inh -10% and FEN1 inh -6%.
Screening OC(CNC1CCCCCC1)COc1cccc2ccccc12 (stereo not drawn) returned GCN5L2 inh -3% and FEN1 inh 11%.
`O=C(CCC(=O)Nc1ccc(Br)cc1)N/N=C/c1ccccc1O` gave GCN5L2 inh 1% and FEN1 inh -5%.
`Cc1nn(C(=O)/C(C#N)=C/N(C)C)c(C)c1C` gave GCN5L2 inh 1% and FEN1 inh 7%.
`COc1ccc(OC)c(C(=O)NC(CC(N)=O)c2ccc(N3CCC(Cc4ccccc4)CC3)c([N+](=O)[O-])c2)c1` (stereo not drawn) gave GCN5L2 inh -6% and FEN1 inh 10%.
Screening COc1ccc(CCNC(=O)C2CCC(=O)N(C3CCCCCC3)C2)cc1 (stereo not drawn) returned GCN5L2 inh -12% and FEN1 inh 18%.
Screening Cc1cc(C)cc(OCC(=O)N/N=C/c2ccccn2)c1 returned GCN5L2 inh -8% and FEN1 inh -15%.
For O=C(CN1CCCCCC1)Nc1ccc(Cl)cn1 the results were GCN5L2 inh -13% and FEN1 inh -2%.
`O=C(NCCc1ccccc1)c1n[nH]c2ccccc12` gave GCN5L2 inh 20% and FEN1 inh 17%.
For Cc1cc(-c2onc(C)c2C(=O)N/N=C/c2ccccc2)no1 the results were GCN5L2 inh 0% and FEN1 inh 7%.
For CC1CCN(c2nc(-c3ccccc3)c(C#N)c(=O)[nH]2)CC1 the results were GCN5L2 inh -9% and FEN1 inh -8%.

Brought forward from above: three entries; new compounds follow.
`O=C(NCCc1ccccc1)c1n[nH]c2ccccc12` gave GCN5L2 inh 20% and FEN1 inh 17%.
For Cc1cc(-c2onc(C)c2C(=O)N/N=C/c2ccccc2)no1 the results were GCN5L2 inh 0% and FEN1 inh 7%.
For CC1CCN(c2nc(-c3ccccc3)c(C#N)c(=O)[nH]2)CC1 the results were GCN5L2 inh -9% and FEN1 inh -8%.
Screening COC(=O)CCC(=O)Nc1ccc2oc3c(c2c1)CCCC3 returned GCN5L2 inh -1% and FEN1 inh 0%.
Screening CS(=O)(=O)c1ccc2nc(NC(=O)Cc3ccccc3)sc2c1 returned GCN5L2 inh 1% and FEN1 inh -11%.
For CCN1C(=O)[C@@H]2[C@@H](c3ccc(-c4ccc(C(C)=O)cc4)c(OC)c3)N3CCCC[C@@]3(C(=O)OC)[C@@H]2C1=O the results were GCN5L2 inh -4% and FEN1 inh -4%.
COCCn1c(SCC(=O)NC(=O)NC(C)C)nc2ccccc21 was read as GCN5L2 inh -1% and FEN1 inh -12%.
`CC1=CC(C)(C)N(C(=O)CN2C(=O)c3ccccc3C2=O)c2ccccc21` gave GCN5L2 inh -1% and FEN1 inh -4%.
For CCCCc1nnc(NC(=O)CSc2nc(C)cc(=O)[nH]2)s1 the results were GCN5L2 inh -9% and FEN1 inh -11%.
For O=S(=O)(c1ccc2ccccc2c1)N1CCCCC1 the results were GCN5L2 inh -3% and FEN1 inh 1%.
COc1ccc(/C=N/NC(=O)C(=O)N2CCN(c3ccccc3OC)CC2)cc1 was read as GCN5L2 inh 0% and FEN1 inh -17%.
`O=C(N/N=C/c1ccc2ncccc2c1)c1cc(-c2cccs2)nc2ccccc12` gave GCN5L2 inh 0% and FEN1 inh -6%.
`CCCCN(CCCC)CCNC(=O)CN1C(=O)CSc2ccc(S(=O)(=O)N3CCOCC3)cc21` gave GCN5L2 inh -6%&-1% and FEN1 inh -18%&-4%.
For COc1ccc(NS(=O)(=O)c2ccc3c(c2)N(C(C)=O)CCS3)cc1 the results were GCN5L2 inh 2% and FEN1 inh -5%.
`O=C(Nc1nnc(C2CCCCC2)s1)C1CC(=O)N(c2ccccc2)C1` (stereo not drawn) gave GCN5L2 inh -3% and FEN1 inh 2%.
`O=C(/C=C\c1cccs1)c1c(O)ccc2ccc(=O)oc12` gave GCN5L2 inh -5% and FEN1 inh -6%.
For COC(=O)c1ccc(NC(=S)N2CCN(Cc3ccccc3OC)CC2)cc1 the results were GCN5L2 inh inconclusive and FEN1 inh 1%.
For CC(C)[C@H](NC(=O)N1CCn2c1nc1ccccc12)C(=O)N1CCCCC1 the results were GCN5L2 inh -19% and FEN1 inh 20%.
Cc1nc(NC(=S)NC(=O)COc2ccc(Cl)cc2)ccc1Br was read as GCN5L2 inh 29% and FEN1 inh -1%.
Cc1ccc(S(=O)(=O)N2CCN(C(=O)Cc3ccccc3)CC2)cc1 was read as GCN5L2 inh -6% and FEN1 inh 1%.
O=S(=O)(Nc1cccc(CCc2ccccn2)c1)c1ccc2ccccc2c1 was read as GCN5L2 inh -15% and FEN1 inh -16%.
`COc1cc(OC)c(OC)cc1CCC(C)NC(=O)Cc1ccccc1` (stereo not drawn) gave GCN5L2 inh 29% and FEN1 inh 15%.
Screening CCNC(=S)N(Cc1c(C)noc1C)c1ccccc1 returned GCN5L2 inh 4% and FEN1 inh 9%.
`CCOC(=O)Cc1csc(NS(=O)(=O)Cc2ccccc2)n1` gave GCN5L2 inh -5% and FEN1 inh -9%.
COC(=O)CSc1nc(-c2ccccc2)c2c(c1C#N)CCCC2 was read as GCN5L2 inh 0% and FEN1 inh -5%.
`CCOc1cc(/C=C/c2nc3ccccc3s2)ccc1OCC(=O)N1CCOCC1` gave GCN5L2 inh -17% and FEN1 inh 4%.

These rows are one share of the data, and most or all hits are left out here.
